gsp antagonist – antagonists of gsp mutant (McCune-Albright syndrome); actives 0.4% (n = 340,000); gsp-mutant cells, cAMP HTRF, 30 min; control for the full effect not named in the record; Potency, µM (series often up to 76.9 µM), for inactives: at the top dose activity change, negative = inhibition, actives largely listed as inhibitors; active = falling curve of any shape with a large fitted effect; inconclusive = falling curve, mostly with a smaller effect; inactive = flat or rising curve; cell line not stated here;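 also: intracellular cAMP measured with PDE inhibitor Ro 20-1724 present during compound exposure; potency is read from the fitted curve at half-maximal effect; % is scaled to controls: 0 for no effect and ±100 for the full control effect; nearly all actives have a fitted effect of over 65% in size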
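HTRF cAMP read-out (cAMP-d2 plus anti-cAMP antibody-K in lysis buffer, 30 min RT). Before lysis, cells are exposed to compounds with […] for 30 min at 37C in DPBS containing Ca/Mg, BSA and Tween 20.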
Sfp PPTase inh – blocks B. subtilis Sfp PPTase activity. Q9F4F7. Biochemical Sfp PPTase activity, qHTS. Potency, µM, for inactives: max response, negative = inhibition, most hits filed as inhibitors. actives 3.5% (n = 310,000). AID 1490; active = well fitted inhibition curve with a large enough effect; inconclusive = small, poorly fitted or top-dose-only effect, or another doubt; inactive = no such curve, though single readings can be large or run the other way;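 also: the enzyme is Sfp with the accession as filed and its product quenches rhodamine fluorescence; potency is read from the fitted curve at half-maximal effect; 0% = enzyme reaction without inhibitor and -100% = no enzyme wells; top concentration of the series not given in the record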
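Sfp 15 nM + cpd, 15 min RT; start w/ rhodamine-CoA 5 uM, BHQ-2-YbbR 12.5 uM (final); 50 mM Hepes pH 7.6, 10 mM MgCl2, 0.01% NP-40, 0.01% BSA; read 525/598 nm at 0 and 30 min.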
TRPV1 PAM – enhances activation of the human vanilloid receptor TRPV1. Q8NER1. TRPV1-expressing cells, Fluo-8 calcium influx, capsaicin EC20 potentiation; host cell line not named in the record; control for the full effect not named in the record. potentiation, % at 8.33 µM. actives 0.02% (n = 320,000); active means potentiation above 80%; inconclusive means 30% to 80%; inactive means below 30%; also: 0% is about no effect
Target sequence (Q8NER1 whole entry, looked up): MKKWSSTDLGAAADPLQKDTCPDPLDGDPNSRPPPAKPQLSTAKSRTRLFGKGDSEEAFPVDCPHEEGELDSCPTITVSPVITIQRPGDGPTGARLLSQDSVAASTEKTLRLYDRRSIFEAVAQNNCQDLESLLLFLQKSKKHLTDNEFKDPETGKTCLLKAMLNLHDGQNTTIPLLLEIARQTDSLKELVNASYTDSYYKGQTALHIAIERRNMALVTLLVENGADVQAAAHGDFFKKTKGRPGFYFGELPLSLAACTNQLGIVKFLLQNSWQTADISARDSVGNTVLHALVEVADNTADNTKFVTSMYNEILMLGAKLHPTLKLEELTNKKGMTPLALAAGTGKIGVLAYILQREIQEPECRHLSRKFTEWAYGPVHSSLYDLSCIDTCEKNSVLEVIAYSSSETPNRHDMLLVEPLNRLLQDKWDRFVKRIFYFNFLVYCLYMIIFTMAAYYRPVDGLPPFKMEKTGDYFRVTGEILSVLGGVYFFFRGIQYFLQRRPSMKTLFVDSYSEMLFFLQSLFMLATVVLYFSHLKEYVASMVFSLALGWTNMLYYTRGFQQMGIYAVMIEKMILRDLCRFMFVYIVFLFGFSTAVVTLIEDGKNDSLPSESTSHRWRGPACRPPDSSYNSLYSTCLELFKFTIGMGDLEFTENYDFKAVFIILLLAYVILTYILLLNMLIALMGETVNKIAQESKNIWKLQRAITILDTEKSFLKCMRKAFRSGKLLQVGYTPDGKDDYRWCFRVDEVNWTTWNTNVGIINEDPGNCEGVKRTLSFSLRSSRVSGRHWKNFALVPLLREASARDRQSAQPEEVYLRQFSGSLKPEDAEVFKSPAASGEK
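Fluo-8 calcium influx in TRPV1-expressing cells, kinetic read (ex 480/em 520 nm). Compound added and read 3 min for agonist activity, followed by capsaicin at EC20 final and 2 min further read for enhancement.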
ClpP mod – qHTS Assay for Activators of ClpP. ATP-dependent Clp protease proteolytic subunit (Bacillus subtilis (strain 168)), P80244. purified B. subtilis ClpP, FRET peptide cleavage, 20 min. Potency, µM (series often up to 57.5 µM), without a hit: at the top dose activity change, negative = active. actives 1.9% (n = 340,000). AID 651965, 2013; active = well fitted falling curve with a large enough effect; inconclusive = small, poorly fitted or top-dose-only effect; inactive = no such curve, though single readings can be large or run the other way; also: potency is read from the fitted curve at half-maximal effect; the source files actives as falling curves though it sought activators and does not explain the sign; nearly all actives have a fitted effect of over 65% in size; many hits overshoot -100%
Target sequence (P80244 whole entry, looked up): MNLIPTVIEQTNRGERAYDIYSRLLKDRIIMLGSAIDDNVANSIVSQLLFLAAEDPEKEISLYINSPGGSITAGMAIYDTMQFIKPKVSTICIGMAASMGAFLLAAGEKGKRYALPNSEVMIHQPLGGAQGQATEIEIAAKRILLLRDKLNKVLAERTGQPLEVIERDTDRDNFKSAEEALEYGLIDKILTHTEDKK
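Purified B. subtilis ClpP, 10 microg/mL final in Tris/HCl pH8 with KCl, BSA, glycerol and Tween-20, cleaved an Abz/nitrotyrosine-quenched decapeptide. Fluorescence (ex 320, em 430) was read at 0 and 20 min at room temperature. Delta was normalized to 5.8 microM ADEP and DMSO/no-enzyme controls.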
Menin MLL FP FL – inhibitors of human menin-MLL interaction, wild-type MLL peptide; Fluorescence polarization, fluorescein-MLL peptide displacement from menin; FP activity change, % at 61.4 µM; 290,000 tested, under 10 active; inconclusive = falling polarisation curve, or a change in total fluorescence; inactive = total fluorescence flat and polarisation flat or rising; no compound was filed as active; the % refers to the polarisation; negative = inhibition;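 also: % of control where 0% means no effect; inhibitors lower the polarisation; unlabelled MLL peptide was the positive control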
CtBP-E1A inh – CtBP/E1A binding inhibition | AlphaScreen GST-E1A/His-CtBP binding, 1536-well; stronger effect = lower value; control for the full effect not named in the record | activity change, % (concentration not given with the values) | actives 0.49% (n = 340,000); in the data active means activity change below about -65%; inconclusive means about -30% to -65%; inactive means above about -30%; also: % is scaled to controls: 0 for no effect and ±100 for the full control effect
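Steps: dispense buffer (Tris pH 8.0, NaCl 300 mM, TCEP 1 mM, BSA, Tween 20); add 5X protein mix (GST-E1A, His-CtBP, 125 nM each); pin 23 nL compound; 2 h at 37 °C, dark; add 5X beads (50 ug/mL); 1 h; read.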
gsp ag – agonists of gsp mutant (McCune-Albright syndrome). gsp mutant cells, cAMP HTRF, 30 min; control for the full effect not named in the record. Potency, µM (highest dose often 76.9 µM), without a hit: at the top dose activation (cAMP increase), usual class: activators. actives 0.13% (n = 340,000); active = well fitted activation curve with a large enough effect; inconclusive = small, poorly fitted or top-dose-only effect, or another doubt; inactive = no such curve, though single readings can be large or run the other way; cell line not stated here;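 also: phosphodiesterase inhibitor Ro 20-1724 added with compounds to block cAMP breakdown; potency is read from the fitted curve at half-maximal effect; nearly all actives have a fitted effect of over 60% in size; about a fifth of the inactives were tested at one dose only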
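Cells stably selected in G418 were plated at 2000/well, grown 16-24 hr, then given compounds in DMSO with the PDE inhibitor […] (300 uM solution added) for 30 min at 37C; cAMP was read by HTRF.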
An asterisk follows results filed as active; ? = inconclusive; · = no result given; & = joins results of further samples; [ ] = remark or other dose.

SMILES	gsp antagonist	Sfp PPTase inh	TRPV1 PAM	ClpP mod	Menin MLL FP FL	CtBP-E1A inh	gsp ag
CCOC(=O)C(CC)n1nc(C)n2c(cc3occc32)c1=O (configuration not stated)	7%	12%	2	4.2%&-3.9%	1.2	4	26%
C=CCN(c1ccccc1)S(=O)(=O)c1cccc(C(=O)N2CC(C)CC(C)C2)c1 (configuration not stated)	-37%	9%	-6	1.3%	·	5	-18%[15.4 µM]
O=C(CSc1nc2ccccc2[nH]1)NCc1ccc(F)cc1	3%	12%	-8	·	-1.4	4	2%
Cc1ccc(S(=O)(=O)n2ccc3c(OCCOCCSCC(NC(=O)OC(C)(C)C)C(=O)O)cccc32)cc1 (configuration not stated)	-16%	3%	3	-0.4%	-7.2	-2	3%[15.4 µM]
O=C(CSc1ncccn1)Nc1ccc(S(=O)(=O)N2CCCCC2)cc1	-17%	21%	5	-1.8%	7.4	-3	-19%
O=C1CCCCCN1CP(=O)(O)CCc1ccccc1	0%	10%	-6	-0.9%	7.0	-2	-26%
CCOc1ccc(N(CC)C(=O)c2cn(CC)c(=O)c3cc(OC)c(OC)cc23)cc1	1%	10%	13	-4.5%	3.1	-7	-28%
N#Cc1cnc(SCC(=O)NNC(=O)COc2cccc3ccccc23)nc1N	1%	8%	7	-1.7%	12	-23	7%
O=C(NC(Cc1ccccc1)C(=O)O)c1ccccc1 (configuration not stated)	3%	13%	27	0.7%	-1.1	4	4%
O=C1OCc2ccc(NC(=O)C3CCCCC3)cc21	4%	-3%	29	-0.7%	0.8	10	-23%
CC(C)c1cccc(OCC(=O)Nc2ccc(S(=O)(=O)Nc3ccccn3)cc2)c1	1%	?	12	·	-0.6	-7	-44%[inhibitor]
Cc1c(/C(O)=C2/C(=O)C(=O)N(CCN3CCOCC3)C2c2ccco2)cnn1-c1ccccc1 (configuration not stated)	7%	·	·	-1.5%	·	·	6%

Some of these compounds in order of molecular weight, low to high.
SMILES	gsp antagonist	Sfp PPTase inh	TRPV1 PAM	ClpP mod	Menin MLL FP FL	CtBP-E1A inh	gsp ag
O=C1OCc2ccc(NC(=O)C3CCCCC3)cc21	4%	-3%	29	-0.7%	0.8	10	-23%
O=C1CCCCCN1CP(=O)(O)CCc1ccccc1	0%	10%	-6	-0.9%	7.0	-2	-26%
Cc1c(/C(O)=C2/C(=O)C(=O)N(CCN3CCOCC3)C2c2ccco2)cnn1-c1ccccc1 (configuration not stated)	7%	·	·	-1.5%	·	·	6%

The list continues.
SMILES	gsp antagonist	Sfp PPTase inh	TRPV1 PAM	ClpP mod	Menin MLL FP FL	CtBP-E1A inh	gsp ag
Nc1ccc2nn(-c3ccc(Cl)cc3)nc2c1	9%	-3%	8	7.8%	5.0	7	?
CC(Oc1ccccc1)C(=O)Nc1c2c(nn1-c1ccccc1)CS(=O)(=O)C2 (configuration not stated)	8%	14%	6	2.2%	·	9	7%[15.4 µM]
COc1ccccc1CN(Cc1cc2cc(C)cc(C)c2[nH]c1=O)Cc1nnnn1CC1CCCO1 (configuration not stated)	-17%	-3%	6	-21%	2.3	-19	-63%[inhibitor]
Cc1ccc(S(=O)(=O)N2CCCCC2)c2nsnc12	-3%	14%	-2	·	0.4	-7	-81%[inhibitor]
COc1ccccc1CNS(=O)(=O)c1cccc(S(=O)(=O)N2CCOCC2)c1	27%	6%	-7	0.8%	0.7	34	-12%
COc1cccc(C2c3c(oc4ccc(Cl)cc4c3=O)C(=O)N2c2cc(C)on2)c1OC (configuration not stated)	-9%	20%	-4	-0.3%	2.3	-5	28%
Cc1cccc(NC(=O)CN2CCN(CC(=O)NCC3(N4CCCCC4)CCCCC3)CC2)c1C	8%	·	11	-1.2%	·	0	0%
C[C@@H]1CCC(=O)N(CC[C@H](Sc2ccc(Br)cc2)c2ccccc2)CC1	?	·	3	-0.8%&-4.4%	·	4	·
NC1=NS(=O)(=O)NC1c1ccc(Br)cc1 (configuration not stated)	6%	23%	-2	·	-3.3	4	-3%
CCOC(=O)c1ccccc1NC(=O)Cn1cnc2c1c(=O)n(C)c(=O)n2C	13%	13%	-3	-1.3%	1.1	-1	28µM*
O=C(Cn1cnc2c(nnn2Cc2ccc(F)cc2)c1=O)N1CCN(c2ccccc2)CC1	4%	9%	-13	25µM*	1.3	-2	-22%
Cc1cccc(-n2ncc3c2CCCC3NC(=O)CC(F)(F)F)c1C (configuration not stated)	-6%	5%	-4	·	4.9	7	-30%[inhibitor]
COCCNC(=O)C(c1ccc(O)cc1)N(Cc1ccccc1)C(=O)CCC(=O)Nc1nccs1 (configuration not stated)	-12%	15%	2	·	-9.9	-2	-6%[15.4 µM]
CC1CC(C)CN(C(=O)C2CCC(CNS(=O)(=O)c3ccccc3)CC2)C1 (configuration not stated)	-16%	8%	17	1.8%	1.9	·	?
CC1([N+](=O)[O-])COC(C=Cc2ccccc2)OC1 (configuration not stated)	-1%	·	·	·	·	3	9%
COc1ccc(C(=O)CSc2nnc(Cn3nnc4ccccc43)n2C)cc1	6%	13%	3	-7.9%	0.7	4	-12%
CCOc1ccc(CN(C)CC(=O)Nc2cc(OC)c([N+](=O)[O-])cc2C)cc1	-22%	4%	-1	1.1%	2.3	14	-1%[15.4 µM]
C[C@H](NC(=O)OC(C)(C)C)C(=O)N/N=C/C1=Cc2ccccc2OC1	3%	5%	0	-27%	-0.3	·	27%
CC(c1ccccc1)C(CC(=O)O)C(=O)Nc1ccc(Cl)c(Cl)c1 (configuration not stated)	14%	22%	8	·	2.9	2	?
O=c1[nH]c([N+](=O)[O-])nn1C(c1ccccc1)c1ccccc1	?	8%	-1	0.8%	1.1	-5	?
CCOC(=O)N1CCC(=NNc2ncc(C(F)(F)F)cc2Cl)CC1	3%	?	-5	·	-2.6	0	13%[15.4 µM]
COc1cccc(OCc2cc(C(=O)N(C)C3CC(C)(C)NC(C)(C)C3)no2)c1	17%	-1%	-3	-5.0%	·	-17	-49%[inhibitor]
Cc1ccc(C)c(C(=O)CSc2nc(C)cc(=O)[nH]2)c1	-6%	-6%	2	1.0%	0.6	·	-33%
CCOc1ccccc1OCCC(=O)Nc1ccc2c(c1)OCO2	-19%	·	·	1.6%	·	-1	0%
CC(=O)Nc1cc(-c2ccccc2)nn1Cc1ccc(Cl)cc1	4%	15%	-28	-1.3%	-2.0	-1	-16%
CC(C)c1ccc(OCc2nnc(SCC(=O)N3CCCCC3)o2)cc1	-10%	2%	-10	·	1.2	7	24%
O=C(CNC1CCCCCC1)Nc1ccc(N2CCCC2)cc1	·	-2%	?	·	-4.9	·	·
O=C1CSC(c2ccccc2)N1c1ccccc1F (configuration not stated)	1%	6%	2	-0.2%	0.0	·	4%
CCCCn1cnc2sc3c(c2c1=N)CCCC3	7%	-12%	-1	-0.9%	4.8	0	?
COC(=O)c1ccc(NC2CC(=O)N(c3ccccc3C)C2=O)cc1 (configuration not stated)	6%	-17%	10	1.3%	1.2	1	6%
CSc1nnc2c(n1)[nH]c1c(C)cccc12	13%	15%	-16	?	-0.3	13	14%
Cc1ccc(Oc2c(C=O)c3ccccc3n2C)cc1	-12%	-15%	-5	-0.8%	4.7	10	25%
Cc1ccc(S(=O)(=O)N[C@H](C(=O)OCC(=O)N2N=C(c3ccc(Cl)cc3)CC2c2ccco2)C(C)C)cc1 (some centres not stated)	6%	79µM*	-19	?	7.5	-2	15%
O=S1(=O)N=C(Nc2ccc(O)cc2)c2ccccc21	3%	5%	8	-2.2%	2.2	·	-4%
CNc1ccc([N+](=O)[O-])cc1	2%	·	-4	0.9%	·	-11	·
Cc1ccc(NC(=O)C2CCCN2C(=O)OC(C)(C)C)cc1C (configuration not stated)	7%	11%	-11	1.7%	0.4	-2	-4%
COC(=O)c1cn(CCOc2ccccc2OC)c2ccccc12	?	-4%	6	-0.1%	0.5	2	0%
N#Cc1cc(-c2ccccc2)nc(Oc2ccc(Cl)cc2)n1	8%	-5%	-5	-15%	·	8	-2%
C=CCS(=O)(=O)N1CCCC(N(C)CCc2ccc(OC)c(OC)c2)C1 (configuration not stated)	5%	16%	28	1.0%	-4.7	·	-22%
O=C(Nc1ccc2c(c1)CCC2)c1cccc(S(=O)(=O)N2CCN(c3ccc(F)cc3)CC2)c1	7%	6%	21	-5.8%	0.4	-16	-42%[inhibitor]
Cc1ccc(OCC(=O)O/N=C(\N)c2ccncc2)cc1C	-10%	2%	-21	·	0.6	14	23%[15.4 µM]
COc1ccc(N2C(=O)CC(n3cnc4ccccc43)C2=O)cc1 (configuration not stated)	6%	10%	-1	0.8%	1.5	0	-22%
CC(=O)c1cccc(S(=O)(=O)Nc2ccc(N3CCOCC3)cc2)c1	-10%	6%	4	·	·	-16	-35%
O=C(COC(=O)c1ccc(NC(=O)C2CC=CCC2C(=O)O)cc1)c1ccccc1 (configuration not stated)	2%	7%	2	1.6%	3.3	0	22%
CCCNC(=O)Cc1ncn[nH]1	-3%	14%	6	-1.7%	-1.1	0	7%
Cc1cc(C)c(C#N)c(N2CCC(C(N)=O)CC2)n1	2%	16%	2	·	1.2	5	5%[15.4 µM]
COc1ccc(N/N=C(/Oc2ccc([N+](=O)[O-])cc2)C(C)=O)cc1	-16%	14%	3	-3.5%	-2.1	-9	10%
O=C1NCC(CN(c2ccccc2)c2ccccc2)O1 (configuration not stated)	8%	-20%	26	-17%	1.5	0	5%
Cc1ccc(-c2nnc(N3CCN(C(=O)Cn4c(=O)n(C)c5ccccc54)CC3)c3ccccc23)cc1	-16%	3%	1	0.8%	7.3	0	-30%
CC(C)c1ccc2nc(N)sc2c1	6%	13%	-8	·	0.2	-1	15%[15.4 µM]
CC(C)c1ccc(C(=O)OCC(=O)Nc2cccc(S(=O)(=O)NC3=NCCC3)c2)cc1	·	·	·	-0.6%	·	4	-47%[inhibitor]
COc1ccc(CNC(=O)CN2CCN(c3ccccc3)CC2)cc1	8%	3%	-24	-2.0%	-3.2	-1	-15%
CC(=O)N1CCCc2cc(S(=O)(=O)N3CCN(c4ccccn4)CC3)ccc21	-15%	8%	-15	-27%	0.0	2	-31%
Cc1ccc(-c2ccc(S(=O)(=O)N3CC(C)OC(C)C3)cc2)cc1 (configuration not stated)	-1%	13%	3	2.1%	-2.3	·	-15%

Hits appear at their usual frequency (roughly 5.3% active in at least one column).
